# Source: PubChem
# HSV replic up = HSV replication enhancement. HSV replication augmentation in cells, fold increase. maximum fold increase. 220,000 tested, 0.005% active. AID 1956;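 active means peak rise of 1.5-fold or more in the series; tested in PC3 cells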;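 further: first round at 10 µM; read as green reporter fluorescence; hits show the peak of a series up to 25 µM; 1 = signal of infected wells without compound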
# PKD1 inh = blocks activity of human protein kinase D1. PKD1 kinase fluorescence polarization assay. inhibition, %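 (about 10 µM by stock and volumes)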. 200,000 tested, 0.056% active. AID 797;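 active means inhibition of 50% or more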;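 further: controls were vehicle for no effect and a reference inhibitor for full effect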
# GALR2 agonist = activates the human galanin receptor 2; GALR2-expressing cells, agonist activation read-out; activation, %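 (tested at 5 µM)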; 140,000 tested, 0.48% active;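 active means above mean plus 3 SD of all compounds, about 5% in these data, not always enough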;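 further: 0% = vehicle buffer wells and 100% = reference agonist at full effect; tested in CHO reporter cells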
# Target sequence (O43603 whole entry, looked up): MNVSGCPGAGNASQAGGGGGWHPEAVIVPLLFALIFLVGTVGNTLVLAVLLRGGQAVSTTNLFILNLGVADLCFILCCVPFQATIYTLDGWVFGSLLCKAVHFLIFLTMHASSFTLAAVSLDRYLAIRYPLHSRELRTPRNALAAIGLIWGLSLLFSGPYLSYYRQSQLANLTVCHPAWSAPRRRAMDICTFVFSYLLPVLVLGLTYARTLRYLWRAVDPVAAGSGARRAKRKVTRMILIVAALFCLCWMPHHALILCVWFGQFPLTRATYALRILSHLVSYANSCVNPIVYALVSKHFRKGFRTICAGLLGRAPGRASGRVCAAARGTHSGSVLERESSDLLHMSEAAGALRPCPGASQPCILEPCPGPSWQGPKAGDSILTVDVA
# Insulin prom inh = TRM-6 insulin promoter activity inhibition; TRM-6 cells (human fetal islet line), insulin promoter-eGFP reporter, imaging; reporter expression induced with tamoxifen; inhibition, % at 2 µM; 130,000 tested, 0.9% active; AID 1273;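 active means inhibition above the mean plus 3 SD, with well images judged a real hit on visual review, cut at about 60% in these data, passing the limit was not always enough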
# RGS16-Gao = modulates binding between human RGS16 and Galphao | bead-based flow cytometry RGS16-Galphao binding, fluorescence; actives lie on both sides | binding response (% of control), % at 10 µM | O15492+P09471 | 220,000 tested, 0.38% active | AID 1441;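 active means below 25% or above 175%, edge rows of some plates excepted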;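 further: Galphao activated by GDP with aluminum fluoride before binding; 100% = wells without compound and 0% = beads without RGS; some results beyond the cut were filed as inactive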
# Target sequence (O15492 whole entry, looked up): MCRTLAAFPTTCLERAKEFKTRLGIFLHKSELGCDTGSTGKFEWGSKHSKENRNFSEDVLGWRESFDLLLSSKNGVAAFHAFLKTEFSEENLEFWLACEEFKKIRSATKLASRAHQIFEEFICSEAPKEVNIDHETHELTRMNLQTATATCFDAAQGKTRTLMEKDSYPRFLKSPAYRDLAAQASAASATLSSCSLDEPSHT
# Target sequence (P09471 whole entry, looked up): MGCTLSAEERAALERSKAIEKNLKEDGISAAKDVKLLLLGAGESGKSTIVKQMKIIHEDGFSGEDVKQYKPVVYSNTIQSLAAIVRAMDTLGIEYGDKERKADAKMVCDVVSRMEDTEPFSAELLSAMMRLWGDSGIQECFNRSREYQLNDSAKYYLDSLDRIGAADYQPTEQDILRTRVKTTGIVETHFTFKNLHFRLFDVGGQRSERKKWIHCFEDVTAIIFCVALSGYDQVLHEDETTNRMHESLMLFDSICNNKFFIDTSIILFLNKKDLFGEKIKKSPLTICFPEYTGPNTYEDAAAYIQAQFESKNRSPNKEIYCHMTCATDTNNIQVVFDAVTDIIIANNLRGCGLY
# Insulin prom inh cell count = also measured in Insulin prom inh; calls as there; normalized cell count, %; measured here: cell count, toxicity; reference of the scale not given here;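 cells exposed to compound for 48 h; stained nuclei by imaging scaled within each plate; lower means fewer cells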
# HSV replic up primary fold = recorded beside HSV replic up, whose call it bears; fold increase; compound at 10 µM; measured here: primary screen fold increase 10 uM; tested in PC3 cells;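 GFP signal in the first replicate; 1 = infected wells without compound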
# Starred values were filed as active, the others as inactive; i = inactive; nt = no result given.
smiles	HSV replic up	HSV replic up primary fold	PKD1 inh	GALR2 agonist	Insulin prom inh	Insulin prom inh cell count	RGS16-Gao
O=C(NCCc1ccccc1)C1CCC(CNc2c(N3CCCCC3)c(=O)c2=O)CC1 (stereo unspecified)	i	1	1	-1.8	-50	59	118
COc1ccc(C(=O)C2CCCN(Cc3ccc4nonc4c3)C2)cc1F (stereo unspecified)	i	1.1	0	nt	nt	nt	109
CN(CC(=O)NCc1ccccn1)S(=O)(=O)c1ccc(Br)cc1	i	0.97	2	nt	-39	201	102
Cc1ccccc1NC(=O)c1ccccc1NS(=O)(=O)c1cccc2cccnc12	i	1.1	-8	-0.4	nt	nt	99
Cc1ccc(SCc2cc(=O)[nH]c(/N=C(\N)Nc3ccccc3Sc3ccccc3)n2)cc1	i	1.3	-12	-0.8	nt	nt	97
Cc1ncc(CO)c(/C=N/NC(=O)c2ccc(Br)cc2)c1O	i	0.92	2	-1.8	31	129	102
C(=N\n1cnnc1)/c1ccc2c(c1)OCO2	i	0.92	1	-3.4	67	90	111
CCn1c(=O)c2c(n3c(=S)[nH]nc13)-c1ccccc1CC21CCCCC1	i	1.1	4	nt	nt	nt	94
O=C1COc2ccc(C(=O)COC(=O)Cc3ccc(Cl)cc3)cc2N1	i	0.97	1	nt	nt	nt	103
CSc1nc(Cl)cc(N2CCOCC2)n1	i	0.97	0	nt	45	89	88
COCCCNC(=O)c1cc(C)nn1-c1ccccc1	i	0.92	nt	nt	nt	nt	100
CC(=O)c1sc(NC(=O)c2cccc3ccccc23)nc1C	i	0.92	-6	-2.6	31	89	119
Cc1ccc(C(=O)N2CCOCC2)cc1S(=O)(=O)Nc1cccc(C)c1C	i	0.95	-2	-1.1	32	68	102
Cc1c(C(=O)NCc2cccnc2)sc2ncn(CC(=O)N3CCCCC3C)c(=O)c12 (stereo unspecified)	i	0.8	-5	-2.0	62	111	105
COCC1CCCCN1Cc1cn(-c2ccccc2)nc1-c1ccc2c(c1)OCO2 (stereo unspecified)	i	0.97	-5	nt	nt	nt	113
O=C(Cn1cnc2c(nnn2Cc2ccc(Cl)cc2)c1=O)c1ccccc1	i	0.85	-3	nt	nt	nt	93
Cc1ccc(CN2CCN(CC(=O)N3CCc4ccccc4C3)C2=O)cc1	i	0.9	4	-4.0	-5	84	105
COCC(=O)OCC(=O)Nc1ccccc1-c1ccccc1	i	1	6	nt	29	133	97
O=C(CCCN1C(=O)c2ccccc2C1=O)NC1=NCCS1	i	1	0	-1.3	0	80	96
Cc1cccc(CSc2ncnc3ccccc23)c1	i	0.85	-6	nt	11	189	104
CCOC(=O)c1c(C)[nH]c(C)c1C(=O)CSc1nncs1	i	1.1	-1	nt	-24	132	102
O=C(Nc1cccc(-c2nc3ccccc3c(=O)o2)c1)c1ccccc1	i	0.89	10	nt	21	103	95
CCOC(=O)C1(C)NC(c2cccs2)C2C(=O)N(c3ccc(C)cc3)C(=O)C21 (stereo unspecified)	i	0.99	-1	nt	-11	65	99
CC1(C)Cc2cccc(C(=O)Nc3ccncc3)c2O1	i	1.1	nt	nt	nt	nt	100
Cc1ccc(-n2cnc3c(sc4nccc(N(C)C)c43)c2=O)cc1	i	0.89	-9	-2.6	-42	75	102
CCOc1cc(/C=C2\C(=O)N(CCc3ccc(OC)c(OC)c3)C(C)=C2C(=O)OC)ccc1O	i	0.84	7	0.0	-3	99	102
COC(=O)c1ccc(C2NC(=O)c3c(sc(C)c3C)N2)cc1 (stereo unspecified)	i	1.1	nt	nt	nt	nt	97
O=C(Cc1cccs1)NC1(C(=O)NC2CCCC2)CCCCC1	i	1.1	-6	-0.1	-58	151	118
CCCCC(=O)Nc1cccc(NC(=O)c2ccc3c(c2)OCO3)c1	i	0.96	-10	-1.3	nt	nt	98
Cc1csc(N/N=C\c2cccnc2)n1	i	0.84	-12	nt	-38	119	105
COC(=O)c1ccc(NC(=O)C(=O)N2CCN(C(=S)Nc3cccc(C)c3C)CC2)cc1	i	1.1	-11	0.4	-14	93	104
Clc1ccc(-c2nnc(C34CC5CC(CC(C5)C3)C4)o2)cn1	i	1.1	-2	-2.6	-17	93	86
C/C(CC1CC(C)(C)OC1=O)=N\NC(N)=S (stereo unspecified)	i	0.98	nt	nt	nt	nt	95
O=C(CSc1nnc(C2COc3ccccc3O2)o1)N1CCN(c2ccccc2)CC1 (stereo unspecified)	i	1.1	6	nt	nt	nt	99
CC(C)Cc1nnc(NC(=O)CS(=O)(=O)Cc2ccccc2)s1	i	1.1	6	0.2	-6	84	101
COc1cccc2cc(C(C)N(CCCN3CCOCC3)C(=S)Nc3ccccc3C)oc12 (stereo unspecified)	i	0.97	4	nt	nt	nt	97
CC(C)(C)NC(=O)C(OC(=O)c1cccs1)c1ccc(F)cc1 (stereo unspecified)	i	0.98	2	nt	-18	115	112
O=C(O)CSCC(=O)Nc1cccc2ccccc12	i	0.97	-17	-0.4	30	113	100
COc1ccccc1CNc1nc(SC)ncc1CO	i	0.97	2	-1.1	-10	178	106
Cc1cc(C(F)(F)F)c2c(N)c(C(=O)Nc3cc(C)on3)sc2n1	i	1	0	-2.2	11	121	104
O=C(CCCn1c(=O)[nH]c2cc(Cl)ccc2c1=O)NCCCN1CCCC1=O	i	1.1	0	-0.8	-41	56	97
O=S(=O)(c1ccccc1)N(C1=NCCS1)S(=O)(=O)c1ccccc1	i	1.1	-2	0.3	nt	nt	99
O=[N+]([O-])c1ccc(CSc2nnc3ccccn23)cc1	i	0.95	0	nt	nt	nt	100
CCOC(=O)c1nnn(CC(=O)N2N=C(c3cc(C)ccc3C)CC2c2ccc(OC)cc2)c1C(=O)OCC (stereo unspecified)	i	0.92	-3	-0.2	38	91	118
Cc1oc(C(=O)O)cc1COc1ccc2c(C)cc(=O)oc2c1	i	0.96	-4	-1.5	-62	106	100
Fc1ccc(NC(=S)N/N=C/c2ccc(F)c(F)c2)c(F)c1	i	0.89	0	-1.3	40	80	103
Cn1c(=S)[nH]c2ccccc21	i	0.84	7	0.8	-4	92	102
C=CCn1c(O)c(N=NC(=O)OC(C)(C)C)c2ccccc21	i	0.97	-4	-0.7	nt	nt	106
Cc1cc(S(=O)(=O)N(Cc2ccccc2Cl)c2ccc3c(c2)CCC3)ccc1-n1cnnn1	i	1	3	-0.9	25	123	104
Cn1c(SCC(=O)NCc2ccccc2)nnc1-c1ccc(NC(=O)CCc2ccccc2)cc1	i	0.91	-9	-4.1	29	159	98
CC1(c2ccc3ccccc3c2)NC(=O)N(CC(=O)Nc2cccc(S(=O)(=O)N3CCOCC3)c2)C1=O (stereo unspecified)	i	0.98	3	-0.6	-21	111	108
CCN(CC)S(=O)(=O)c1cccc(-c2nnc(SCc3nnc(-c4cccs4)o3)n2N)c1	i	0.97	-1	-2.7	nt	nt	104
O=C(NCCOc1ccccc1)c1ccccc1[N+](=O)[O-]	i	1.1	-8	nt	-456	117	100
Cc1ccc(OCCC(=O)NCCc2ccc(S(N)(=O)=O)cc2)cc1	i	0.97	-9	-0.6	3	105	99
Cc1ccc(S(=O)(=O)c2nc(-c3ccccc3)oc2NCc2cccnc2)cc1	i	1	0	-2.3	30	99	97
Cc1csc2c(N3CCC(C(=O)O)CC3)ncnc12	i	1.2	nt	nt	nt	nt	100
Brc1cc(Br)cc(CN2CCSCC2)c1	i	1.3	nt	nt	nt	nt	105
O=C(c1ccco1)N1CCN(C(c2cccs2)c2nnnn2C2CCCC2)CC1 (stereo unspecified)	i	1.1	-2	0.3	-11	17	102
CCOC(=O)C1=C(C)NC(=O)NC1c1cc(Br)c(O)c(OC)c1 (stereo unspecified)	i	1	-3	-0.4	20	60	101
CC(C)(C)c1ccc(C(=O)Nc2ccc(O)c3c(=O)cc(-c4cccc(Cl)c4)oc23)cc1	i	0.89	nt	nt	nt	nt	97

# Some of the entries so far, with values under each structure:
# Values run as follows: HSV replic up, HSV replic up primary fold, PKD1 inh, GALR2 agonist, Insulin prom inh, Insulin prom inh cell count, RGS16-Gao
- CC(C)(C)c1ccc(C(=O)Nc2ccc(O)c3c(=O)cc(-c4cccc(Cl)c4)oc23)cc1
 : i, 0.89, nt, nt, nt, nt, 97
- Cc1ccc(S(=O)(=O)c2nc(-c3ccccc3)oc2NCc2cccnc2)cc1
 : i, 1, 0, -2.3, 30, 99, 97
- Cn1c(=S)[nH]c2ccccc21
 : i, 0.84, 7, 0.8, -4, 92, 102
- O=C(NCCOc1ccccc1)c1ccccc1[N+](=O)[O-]
 : i, 1.1, -8, nt, -456, 117, 100
- Brc1cc(Br)cc(CN2CCSCC2)c1
 : i, 1.3, nt, nt, nt, nt, 105
- Cc1csc2c(N3CCC(C(=O)O)CC3)ncnc12
 : i, 1.2, nt, nt, nt, nt, 100
- Cc1cc(S(=O)(=O)N(Cc2ccccc2Cl)c2ccc3c(c2)CCC3)ccc1-n1cnnn1
 : i, 1, 3, -0.9, 25, 123, 104

# Next part:
smiles	HSV replic up	HSV replic up primary fold	PKD1 inh	GALR2 agonist	Insulin prom inh	Insulin prom inh cell count	RGS16-Gao
O=C(c1nn2c(C(F)(F)F)cc(-c3ccc(F)cc3)nc2c1Cl)N1CCOCC1	i	1.1	-2	-0.3	nt	nt	103
CCc1ccc(N2CN(Cc3ccco3)CNC2=S)cc1	i	1.1	nt	nt	nt	nt	105
Cc1nc2c(-c3ccccc3)c(C)[nH]n2c(=O)c1Cl	nt	nt	-3	-1.8	-105	92	101
O=C(NC(=O)c1ccc(F)cc1F)Nc1ccc(Cl)cc1	i	0.93	nt	nt	nt	nt	95
O=C(Nc1cccc(-c2nc3ccccc3s2)c1)c1cccs1	i	0.56	-6	-0.6	nt	nt	105
O=C(c1ccc(O)cc1)c1ccc(Cl)cc1	i	1	10	-1.9	-21	164	107
CCOC(=O)c1csc(NC(=O)C2CCCCC2)n1	i	0.9	-1	-2.0	nt	nt	93
COc1ccc(N2C(=O)CC(c3ccccc3)C2=O)cc1 (stereo unspecified)	i	0.99	nt	nt	nt	nt	94
O=C(CNc1ccc(Br)cc1)c1ccc(O)cc1	i	1	-3	nt	-19	118	105
O=C(NCc1ccccc1)C1=C[C@H](C2CC2)C[C@H](OCc2ccc(CO)cc2)O1	i	0.82	5	nt	nt	nt	95
CS(=O)(=O)N(CC(=O)N/N=C/c1cc2c(cc1Br)OCO2)c1ccccc1Br	nt	nt	2	-2.8	nt	nt	106
O=C(CN1CCC(C(=O)c2ccc(Cl)cc2)CC1)Nc1ccc2c(c1)OCCO2	i	1.1	-9	-0.8	33	141	99
COc1ccc(NC(=S)NNC(=O)c2cccs2)cc1	i	1	2	-2.4	38	43	140
O=C(Nc1ccc(F)cc1)c1csc(Cc2ccccc2)n1	i	0.92	-7	nt	3	160	107
COc1cc(NC(=O)c2ccccn2)cc(OC)c1OC	i	1.1	-3	nt	nt	nt	101
Cc1cccn2c(=O)c(/C=C(\C#N)C(=O)NCc3ccco3)c(N3CCC(C(N)=O)CC3)nc12	i	0.88	6	-0.6	nt	nt	94
C=CCN=C1S/C(=C/c2ccc([N+](=O)[O-])cc2)C(=O)N1CC=C	i	1	nt	nt	nt	nt	97
Cc1ccc(NC(=O)CSc2nnnn2-c2ccc3c(c2)OCO3)cc1C	i	0.77	0	0.6	nt	nt	104
CCCCc1cc(=O)oc2c(CN(C)C)c(O)ccc12	i	1	-1	1.9	-36	141	102
C/C=C/c1ccc(Oc2nnnn2-c2ccc(C(=O)O)cc2)c(OC)c1	i	0.85	-3	-1.6	25	85	65
C=CCSc1nc(-c2ccccc2)c(C#N)c(=O)[nH]1	i	0.73	-1	0.0	-3	94	103
Cc1ccc(-n2nnnc2/C=C\Nc2cc(C)on2)cc1	i	0.9	-4	-0.8	18	120	98
CCc1c(C(=O)N/N=C/c2ccsc2)csc1C	i	0.98	5	-2.3	-7	141	105
